# MARV entry inh = qHTS for inhibitors of binding or entry into cells for Marburg Virus; Marburg virus pseudotyped entry inhibition, cell reporter; control for the full effect not named in the record; about a third of the inactives were read at about 46 µM; Potency, µM (titrated, usually from 37.8 µM), for inactives: top-dose activity change, negative = inhibition, actives largely listed as inhibitors; 300,000 tested, 1.8% active; AID 540276, 2011; active = well fitted inhibition curve with a large enough effect; inconclusive = small, poorly fitted or top-dose-only effect, or effect the other way; inactive = flat fitted curve, though single readings scatter; tested in HEK293 cells; about a fifth of its hits are not listed in these tables; also: % is scaled to controls: 0 for no effect and ±100 for the full control effect; luciferase read-out
# Lassa entry inh = qHTS for Inhibitors of binding or entry into cells for Lassa Virus. Lassa virus pseudotype entry inhibition, cell reporter; control for the full effect not named in the record. Potency, µM (doses to about 37.9 µM), inactives show top-dose activity change, negative = inhibition, most hits filed as inhibitors. 300,000 tested, 1.2% active. AID 540256, 2011; active means well fitted inhibition curve with a large enough effect; inconclusive means small, poorly fitted or top-dose-only effect, or effect the other way; inactive means flat fitted curve, though single readings scatter; tested in HEK293 cells; also: % is scaled to controls: 0 for no effect and ±100 for the full control effect; nearly all actives have a fitted effect of over 50% in size; luciferase read-out
# StopGo reporter = High Throughput Screening for Foot and Mouth Disease Virus Antivirals. human cells with a luciferase reporter of 2A StopGo recoding; control for the full effect not named in the record. Potency, µM (series often up to 57.9 µM), for the others: at the highest dose signal change, negative = less light. 410,000 tested, 1.2% active; active = well fitted falling curve with a large enough effect; inconclusive = small, poorly fitted or top-dose-only effect; inactive = no such curve, though single readings can be large or run the other way; tested in HEK293T cells; also: % is scaled to controls: 0 for no effect and ±100 for the full control effect; nearly all actives have a fitted effect of over 45% in size; luciferase light after 4 h
# Cruzain noTriton = qHTS Assay for Promiscuous and Specific Inhibitors of Cruzain (without detergent). Cruzipain (Trypanosoma cruzi), P25779. purified cruzain, Z-FR-AMC fluorescence, no detergent. 200,000 tested, 2.3% active. Potency, µM, without a hit: max response, negative = inhibition, actives largely listed as inhibitors;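 also: plate controls were enzyme without inhibitor for no effect and buffer without enzyme for full effect; nearly all actives have a fitted effect of over 40% in size; top concentration of the series not given in the record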
# Target sequence (P25779 123-467 limits assumed): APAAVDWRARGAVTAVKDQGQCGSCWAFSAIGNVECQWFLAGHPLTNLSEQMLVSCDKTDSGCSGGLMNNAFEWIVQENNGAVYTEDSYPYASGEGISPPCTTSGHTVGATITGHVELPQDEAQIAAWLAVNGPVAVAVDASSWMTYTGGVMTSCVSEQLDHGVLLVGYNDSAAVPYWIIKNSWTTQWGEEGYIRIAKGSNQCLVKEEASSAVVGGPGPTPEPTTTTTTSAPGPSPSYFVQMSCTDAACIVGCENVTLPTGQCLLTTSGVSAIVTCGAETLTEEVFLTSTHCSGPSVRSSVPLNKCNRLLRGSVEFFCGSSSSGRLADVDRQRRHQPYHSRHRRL
#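 Detergent-free condition (0.00005% Triton X-100) in acetate buffer pH 5.5 with DTT. 1.5 nM enzyme and compound were pre-mixed 15 min, then 2 uM Z-FR-AMC substrate added; reaction progress from fluorescence change between first and third reads (60 s).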
# Cruzain inh Det = qHTS Assay for Promiscuous and Specific Inhibitors of Cruzain (with detergent); 200,000 tested, 0.43% active; purified cruzain, Z-FR-AMC fluorescence, 0.01% Triton; Potency, µM, inactives show max response, negative = inhibition, hits mostly inhibitors;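 also: plate controls were neutral wells for no effect and buffer without enzyme for full effect; nearly all actives have a fitted effect of over 40% in size; top concentration of the series not given in the record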
#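 Enzyme 1.5 nM, Z-FR-AMC 2 uM, NaOAc 100 mM pH 5.5, DTT 5 mM, Triton X-100 0.01%; 15 min RT compound preincubation; kinetic ex360/em450, 60 s delta.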
# SARS PLpro yeast = qHTS of Yeast-based Assay for SARS-CoV PLP | S. cerevisiae expressing SARS-CoV PLpro, growth rescue; control for the full effect not named in the record | Potency, µM (titrated, usually from 32.9 µM), for the others: at the highest dose activity, positive = growth rescue | 330,000 tested, 0.19% active; active means well fitted rising curve with a large enough effect; inconclusive means small, poorly fitted or top-dose-only effect; inactive means no such curve, though single readings can be large or run the other way; also: 0% is about no effect; nearly all actives have a fitted effect of over 55% in size; growth read by luminescence after 48 h
# NS1 inh = qHTS Assay for Inhibitors of Influenza NS1 Protein Function; S. cerevisiae slowed by influenza A NS1, growth recovery by OD600; Potency, µM (series often up to 46.1 µM), for inactives: at the highest dose activity, positive = more growth; 270,000 tested, 0.4% active; AID 2326, 2010; active means well fitted rising curve with a large enough effect; inconclusive means small, poorly fitted or top-dose-only effect; inactive means no such curve, though single readings can be large or run the other way; also: nearly all actives have a fitted effect of over 50% in size
#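 In this qHTS, NS1 from influenza A is expressed in budding yeast, where it slows growth. Cells are switched from glucose to 2% galactose medium (pH 6.0, -URA), treated with compound, and growth recovery is read at OD600.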
# RE007 growth inh = qHTS Assay for Inhibitors of the HIV-1 protein Vpr; Potency, µM (highest dose often 92.2 µM), without a hit: at the highest dose activity change, negative = less growth; S. pombe RE007 Vpr strain, BacTiter-Glo ATP luminescence, 24 h; control for the full effect not named in the record; 360,000 tested, 0.21% active; active = well fitted falling curve with a large enough effect; inconclusive = small, poorly fitted or top-dose-only effect; inactive = no such curve, though single readings can be large or run the other way;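 also: % is scaled to controls: 0 for no effect and ±100 for the full control effect; nearly all actives have a fitted effect of over 50% in size; the assay follows cell death caused by Vpr and the record does not say whether a fall means rescue or toxicity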
#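 Fission yeast RE007 carrying one integrated HIV-1 vpr copy, seeded at OD 0.01 in PMG+AL medium with 23 nL pinned compound. Grown 24 h at 30 degrees; viability read by BacTiter-Glo luminescence after 5 min.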
# * marks the source's active call; other numbers are inactive results; u = inconclusive; x = not tested or not shown; [ ] = remark or other dose. Unless noted, calls follow the shape of the dose curve; as a rule, active = well fitted curve in the direction sought with a large enough effect; inconclusive = small, poorly fitted or top-dose-only effect, or another doubt; inactive = no such curve, though single readings can be large; an effect the other way counts as inactive or inconclusive. Potency is read from the fitted curve at half-maximal effect.
SMILES,MARV entry inh,Lassa entry inh,StopGo reporter,Cruzain noTriton,Cruzain inh Det,SARS PLpro yeast,NS1 inh,RE007 growth inh
COCCn1c(C)cc(C(=O)COC(=O)CCN2C(=O)c3ccccc3C2=O)c1C,-2%,-9%,7%,2%,4.0%,0%,-5%,8%
CCCCn1c(=O)[nH]c2nc3cc(N)ccc3nc2c1=O,18%,u,43%[activator],-21%,-15%,16%,u,0%
CCOC(=O)c1cccc(NC(=O)CCn2nc(C)c(S(=O)(=O)N3CCCCC3)c2C)c1,1%[46.1 µM],-8%[46.1 µM],u,u,-2.2%,23%,u,9%
CCOc1cc(NC(=S)NCCCN2CCOCC2)c(OCC)cc1NC(=O)c1cccc(F)c1,x,8%,2%,x,x,2%,1%,-1%
Cc1ccc(S(=O)(=O)N2CCOCC2)cc1C(=O)N(C)CCOc1ccc(Cl)cc1,u,u,u,x,x,-1%,-1%,7%
c1ccc(-c2nnc(N3CCOCC3)nc2-c2ccccc2)cc1,u,2%,u,-1%,-4.7%,-1%,-5%,22%
OCc1cc(CO)c(O)c(CCc2ccccc2)n1,-2%[46.1 µM],0%,-2%,-7%,1.7%,-5%,3%,-3%
O=[N+]([O-])CC(c1ccccc1)P(=O)(c1ccccc1)c1ccccc1 (stereo unspecified),x,x,-6%,x,x,0%,u,13%
O=C1/C(=C\c2ccc([N+](=O)[O-])cc2)CS(=O)(=O)C/C1=C/c1ccc([N+](=O)[O-])cc1,u,3.5µM*,2.2µM*,x,x,x,x,u
O=S(=O)(c1ccc(NC(=S)N/N=C/c2c3ccccc3cc3ccccc23)cc1)N1CCOCC1,x,x,16%,x,x,1%,9%,-3%
COc1ccc(CCNC(=O)C2c3ccccc3C(=O)N2CCC(C)C)cc1OC (stereo unspecified),x,x,-26%,x,x,1%,-1%,-3%
O=C1CCCc2c1cc(C(=O)Nc1ccc(Cl)cn1)c(=O)n2-c1ccccc1,-1%[46.1 µM],-6%,3%,u,-10%,-8%,-3%,17%
COCCCN1C(=O)C(=O)/C(=C(/O)c2ccc(S(=O)(=O)N3CCOCC3)cc2)C1c1ccc(C)cc1 (stereo unspecified),-5%,-13%,-26%,x,x,-8%,3%,-22%
CCN(CC)c1nc(C#N)nc(N(CC)CC)n1,u,-3%,u,16µM*,13µM*,-5%,-31%,6%
Cc1ccc(CN2CC(C(=O)N3CCN(S(=O)(=O)c4cc(C)ccc4C)CC3)CC2=O)cc1 (stereo unspecified),u,-17%[46.1 µM],u,x,x,2%,x,20%

# Reprinted from the part before: 2 compounds; new compounds follow.
SMILES,MARV entry inh,Lassa entry inh,StopGo reporter,Cruzain noTriton,Cruzain inh Det,SARS PLpro yeast,NS1 inh,RE007 growth inh
CCN(CC)c1nc(C#N)nc(N(CC)CC)n1,u,-3%,u,16µM*,13µM*,-5%,-31%,6%
Cc1ccc(CN2CC(C(=O)N3CCN(S(=O)(=O)c4cc(C)ccc4C)CC3)CC2=O)cc1 (stereo unspecified),u,-17%[46.1 µM],u,x,x,2%,x,20%
O=C1c2ccccc2C(Nc2cccc(C(F)(F)F)c2)N1Cc1ccco1 (stereo unspecified),14µM*,u,u,6%,-12%,-10%,-53%,-1%
COc1ccc(NS(=O)(=O)c2cccc(NC(=O)CCS(=O)(=O)c3ccccc3)c2)cc1,u,u,-30%,-9%,-5.1%,23%,-11%,4%
COc1ccc(/C=N/NC(=O)c2[nH]nc3c2CCc2ccccc2-3)cc1OC,2%,x,-17%,19%,-23%,-5%,0%,-10%
Cc1cc(OC(C)C(=O)NCC2CCC(C(=O)O)CC2)c2c(C)cc(=O)oc2c1 (stereo unspecified),x,x,-15%,x,x,4%,5%,-2%
CC(C)[C@H](NC(=O)C1CCN(S(=O)(=O)c2ccccc2)CC1)C(=O)NCc1ccco1,0%[46.1 µM],-2%[46.1 µM],0%,x,x,0%,13%,-9%
O=C(Nc1ccccc1)N1CCNCC1,x,x,-8%,x,x,1%,0%,-7%
Cc1cc(NC(=O)c2cc(-c3ccc(O)cc3)on2)no1,x,x,66%[activator],x,x,0%,2%,3%
Cc1nc(Cc2nnc(SCC(=O)N(C)c3ccccc3)o2)cs1,0%,-6%[46.1 µM],-7%,x,x,x,x,6%
Cc1cc(OC(C)C)c2c(-c3ccccc3)cc(=O)oc2c1,-23%,-20%,0%,-3%,-4.0%,-4%,u,-12%
COc1ccc(CCNC2=NCCS2)cc1OC,u,23%,1%,x,x,0%,0%,-22%
COc1cccc(CN2CC(C(=O)N3CCN(c4ccc(Cl)cc4)CC3)CCC2=O)c1 (stereo unspecified),u,-8%,u,x,x,5%,14%,1%
O=C(COc1ccc(Cl)cc1Cl)N(c1ccccn1)C1CCCCC1,u,4%,-2%,-16%,-3.8%,3%,-28%,5%
CC1CCc2c(sc(NC(=O)c3ccccc3C(=O)O)c2C#N)C1 (stereo unspecified),29%[46.1 µM],3%,10%,x,x,-1%,1%,20%
CCC(CC)c1nnc(NC(=O)CS(=O)(=O)Cc2ccccc2)s1,-3%,-2%,-8%,x,x,x,x,7%
CC(C)CC(NC(N)=O)C(=O)NCc1ccc(Cl)cc1 (stereo unspecified),-2%[46.1 µM],u,-5%,x,x,-7%,x,10%
CCC(Sc1ncnc2c1nnn2-c1ccc(F)cc1)C(=O)OC (stereo unspecified),2%,16%,-8%,6%,-2.2%,-3%,-5%,-17%
COc1ccc([N+](=O)[O-])cc1NC(=O)C(C)OC(=O)CSC(C)C(=O)Nc1cc(C)on1 (stereo unspecified),u,-2%,0%,x,x,-4%,x,-1%
Cc1cccc(-n2cnc(C(=O)N/N=C/c3ccccc3)c2)n1,14%,10%,36%[activator],u,0.7%,5%,-10%,6%
C=CCNC(=O)CN(Cc1ccccc1)S(=O)(=O)c1ccc(C)cc1,x,x,7%,x,x,-2%,u,2%
CCN(CC(=O)Nc1c(F)cccc1F)C(=O)c1ccc2ncsc2c1,21%,-9%,-14%,x,x,x,x,5%
C/C(=N\NC(=O)c1cccc([N+](=O)[O-])c1)c1ccncc1,-6%[14.2 µM],17%,-7%,x,x,3%,x,1%
CCOc1ccc(NC(=O)CC2C(=O)N(c3ccc(OC)cc3)C(=S)N2Cc2ccccn2)cc1 (stereo unspecified),-12%[46.1 µM],u,-9%,x,x,-4%,x,-3%
CC(=O)c1c(C)[nH]c(C(=O)CSc2nnc3ccccn23)c1C,u,u,20%,3%,-6.5%,14%,19%,23%
Cc1ccc(NC(=O)CS(=O)CC(=O)N(CC(=O)NC(C)(C)C)c2cccc(C)c2C)cc1 (stereo unspecified),-20%[46.1 µM],-2%,-2%,x,x,1%,-4%,-14%
O=C1COc2ccc(S(=O)(=O)Nc3cccc(Cl)c3)cc2N1,x,x,38%[activator],x,x,-1%,18%,-1%
Cn1c(CCNS(=O)(=O)c2ccccc2)nc2cc([N+](=O)[O-])ccc21,x,x,-5%,x,x,2%,-3%,-4%
CC(=O)c1ccccc1OC(=O)c1ccco1,1%,0%,9%,6%,7.5%,1%,-8%,-4%
Cc1ccc2nc(-c3ccc(SCC(=O)Nc4ccc5c(c4)OCCO5)nc3)[nH]c2c1,-14%,u,11%,-8%,-5.5%,-17%,20%,2%
CC(=O)NCCN=Cc1sc2ccccc2c1O,21%,-5%,17%,0%,-4.9%,-5%,-29%,0%
CN1CCN(CCC(=O)Nc2ccc(OCc3ccccc3)cc2)CC1,-12%,-11%,30%,u,-1.6%,1%,-13%,0%
CC(NC1CCCCC1)C(O)C12CC3CC(CC(C3)C1)C2 (stereo unspecified),7.3µM*,u,-14%,4%,12%,-8%,3%,-2%
Cc1nn(C(=O)c2ccc3c(c2)OCO3)c(N)c1-c1ccccc1,x,x,-19%,-3%,-3.5%,-35%,-93%,-11%
CCc1nnc(NC(=O)CN2CC(C)OC(C)C2)s1 (stereo unspecified),x,x,7%,x,x,4%,6%,-8%
Cc1ccc2c(c1)N(CC(=O)NC1CCCCCC1)C(=O)c1cccnc1O2,u,u,33%[activator],x,x,1%,-19%,-1%
COc1ccc(C(=O)Nc2ccc(NC(=O)c3cccs3)cc2)cc1Cl,26%,6%,8%,7.9µM*,3.1%,4%,7%,-19%
CC(C)(CNC(=O)c1ccccc1F)CNC(=O)c1ccccc1F,2%[46.1 µM],-27%[46.1 µM],23%,x,x,x,x,-6%
Cn1cnnc1SCC(=O)N1c2ccccc2-c2c(ssc2=S)C1(C)C,-3%,x,x,6%,-5.2%,-5%,7%,x
Cc1ccc(S(=O)(=O)C2(C(=O)NCc3ccccc3Cl)CC2)cc1,x,x,-23%,x,x,0%,-5%,-11%
O=C(CCSCCC(=O)N1CCCC1)N1CCCC1,26%[46.1 µM],1%,6%,3%,4.0%,-1%,-17%[9.22 µM],-26%
Brc1ccc(-c2nnc(-c3ccc4c(c3)OCO4)o2)o1,-29%,-16%,0%,u,-20%,-10%,-12%,4%
CCCCCC(=O)N[C@@H](c1ccccc1)[C@@H](O)C(=O)O[C@H]1C[C@@]2(O)[C@@H](OC(=O)c3ccccc3)C3[C@](C)(C(=O)[C@H](OC(C)=O)C(=C1C)C2(C)C)[C@@H](O)C[C@H]1OC[C@@]31OC(C)=O (stereo partly specified),x,x,u,x,x,0%,-17%,-2%
Cc1cccc(CC(=O)NCCN2CCCCC2)c1,19%,19%,-14%,x,x,3%,-1%,-14%
O=S(=O)(/C=C/c1ccccc1)Nc1cccc(S(=O)(=O)NC2=NCCC2)c1,-21%[46.1 µM],-15%,60%[activator],x,x,-6%,x,3%
Cc1cc(OCC(=O)N2CCN(c3cccc(Cl)c3)CC2)c2c(C)c(C)c(=O)oc2c1,x,x,-12%,x,x,4%,6%,-1%
CCCCn1nc2cc(C(=O)N(CC)c3ccc(OC)cc3)ccc2c1OCC,x,x,-10%,0%,-5.4%,-5%,1%,-1%

# Assay outcomes from PubChem.
